Source: PubChem (ICCB-Longwood Screening Facility, Harvard Medical School)
LANA-nucl inh = LANA-nucleosome interaction inhibition | FITC-LANA1-23 / chicken nucleosome fluorescence polarization; hits give low values | z-score (concentration not given with the values) | 51,000 compounds, 0.3% hits | AID 720717;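 active means both repeat wells score below -2 in polarization z-score versus plate sample wells, excluding overly bright wells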;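 further: 100 nL library stock added to about 30 µL; numbers are from one replicate; some results filed as inactive read as strong as hits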
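Assay system: purified chicken nucleosomes with FITC-labelled LANA N-terminal peptide (1-23) / Probe or stimulus: 50 nM FITC-LANA1-23 probe / Compound dosing: pin-transferred compound, 100 nL / Times: compound with peptide–nucleosome mix 10–45 min at room temperature / Technique: fluorescence polarization, 480 nm excitation, 535 nm parallel and perpendicular emission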
Ab BasE inh = BasE siderophore biosynthesis inhibition; purified BasE, fluorescence polarization binding displacement; inhibition, % (test concentration not listed); 84,000 compounds, 0.1% hits;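 active means both replicates above 25% with normal brightness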;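 further: 0% = negative plate control signal and 100% = positive plate control signal; stock transfer was 100 nL into about 30 µL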
Active calls of the source: *; nt = not tested or not shown. Only part of the results is shown; rates above refer to the full screens.

Below each compound: LANA-nucl inh	Ab BasE inh
> COC(=O)CCCC[C@H]1SC[C@H]2NC(=O)N[C@]21O
    0.363	-0.7
> CC(=O)N/C(N)=N/c1nc2ccccc2o1
    nt	3.0
> CC(C)OC(=O)Cn1cc(/C=C2/SC(=O)NC2=O)c2ccccc21
    1.88	-4.1
> Cc1csc(NC(=O)CSc2ccccc2)n1
    nt	2.5
> CC(C)NS(=O)(=O)Cc1ccc(C#N)cc1
    nt	0.9
> COc1cc(C(=O)COC(=O)CSc2nc3ccccc3o2)ccc1OC(F)F
    nt	0.7
> CN(C)NC(=S)NC(=O)C12CC3CC(CC(C3)C1)C2
    nt	-4.8
> CC(C)NC(=S)N/N=C/c1cccc(O)c1
    nt	0.2
> CCC(=O)N1C(C(=O)NCc2ccccc2F)CSC12CCN(C)CC2 (stereo not given)
    nt	1.7
> COc1ccccc1N1CCN(C(=O)c2cnn(-c3ccc(Cl)cc3)c2C)CC1
    nt	-4.1
> c1ccc(-c2nc3sc(-c4ccccc4)nc3s2)cc1
    -0.316	1.0
> Cn1c(=O)n(C)c2cc(/C=C3/SC(=O)N(Cc4ccc(Cl)cc4)C3=O)ccc21
    -0.827	0.6
> COc1ccccc1C(CNC(=O)c1cccc(-n2cnnn2)c1)N1CCCC1 (stereo not given)
    nt	-3.9
> CC1(C)CC(NCC(=O)NC2CC(C)(C)NC(C)(C)C2)CC(C)(C)N1
    -0.679	-1.1
> CCN(CC)S(=O)(=O)c1ccc(Sc2nncs2)nc1
    nt	2.0
> O=C(c1cccc(Oc2ccccc2)c1)N1CCN(C2CCS(=O)(=O)C2)CC1 (stereo not given)
    nt	1.4
> Cc1nc2ccn(Cc3ccco3)c(=O)c2cc1C(=O)NCc1ccco1
    -1.04	0.0
> COC(=O)C1=C(C)NC(=O)CC1c1ccccc1 (stereo not given)
    -0.524	0.8
> COc1ccc(CCNC(=O)C(F)(F)F)cc1
    -0.0275	1.5
> O=C1CSC(c2ccccc2)N1c1cccnc1 (stereo not given)
    nt	-3.3

In another format: entries from further up
| structure | LANA-nucl inh | Ab BasE inh |
| --- | --- | --- |
| CC(=O)N/C(N)=N/c1nc2ccccc2o1 | nt | 3.0 |
| CC(C)OC(=O)Cn1cc(/C=C2/SC(=O)NC2=O)c2ccccc21 | 1.88 | -4.1 |

Some values from the entries so far:
Ab BasE inh, Cc1nc2ccn(Cc3ccco3)c(=O)c2cc1C(=O)NCc1ccco1 is entered as 0.0
Ab BasE inh, CC(C)OC(=O)Cn1cc(/C=C2/SC(=O)NC2=O)c2ccccc21 is entered as -4.1
Ab BasE inh, O=C(c1cccc(Oc2ccccc2)c1)N1CCN(C2CCS(=O)(=O)C2)CC1 (stereo not given) is entered as 1.4
Ab BasE inh, CC(C)NS(=O)(=O)Cc1ccc(C#N)cc1 is entered as 0.9
Ab BasE inh, O=C1CSC(c2ccccc2)N1c1cccnc1 (stereo not given) is entered as -3.3
Ab BasE inh, CCC(=O)N1C(C(=O)NCc2ccccc2F)CSC12CCN(C)CC2 (stereo not given) is entered as 1.7

(further entries)
Below each compound: LANA-nucl inh	Ab BasE inh
> CC1CC(NC(=S)N(C)C)CC(C)(C)C1 (stereo not given)
    nt	0.7
> Cc1cc(C(=O)COC(=O)Cc2n[nH]c(=O)c3ccccc23)c(C)n1-c1ccc2c(c1)OCO2
    nt	-2.2
> CCC(C)NC(=O)C1CCN(S(=O)(=O)c2cccc3nsnc23)CC1 (stereo not given)
    -0.224	-0.6
> CN1CCN(c2c3c(nc4ccccc24)C2(C)CCC3C2(C)C)CC1 (stereo not given)
    -0.0725	nt
> O=C(Nc1ccccc1)O/N=C/c1ccccc1
    -0.459	0.6
> CCc1cc2c(C)cc(=O)oc2cc1OC(=O)[C@@H]1CCCN1C(=O)OC(C)(C)C
    nt	-0.5
> COc1ccccc1N1CCN(C(=S)c2ccccc2OC(F)(F)F)CC1
    nt	1.0
> O=S(=O)(Nc1cc(Sc2ncn[nH]2)c(O)c2ccccc12)c1cccs1
    0.907	-1.4
> CCn1nnc2c(N3CCc4cc(OC)c(OC)cc4C3C)ncnc21 (stereo not given)
    -0.214	-0.2
> O=C(Cn1c(=O)n(Cc2cccs2)c(=O)c2cccnc21)Nc1ccccc1
    -1.06	0.6
> Oc1ccccc1-c1cc(C(F)(F)C(F)F)no1
    0.364	0.7
> O=C(OCC(=O)c1ccc[nH]1)c1ccc(CN2CCCC2=O)cc1
    nt	-5.3
> O=S1(=O)CCN(Cc2cccc(C(F)(F)F)c2)CC1
    -0.0045	nt
> Cc1n[nH]c(C)c1S(=O)(=O)Nc1ccc(S(=O)(=O)N2CCCCCC2)cc1
    nt	3.1
> CNS(=O)(=O)c1cn(CC(=O)NCc2ccccn2)cc1S(=O)(=O)NC
    nt	-0.3
> N=C(N)N=Nc1ccc(NN=C(N)N)cc1
    nt	-0.4
> CCN(Cc1ccc2c(c1)OCO2)C(=O)c1cc(F)c(F)cc1Cl
    nt	2.3
> COc1cc(C(CC(=O)N2CCCCC2)N2Cc3ccccc3C2=O)cc(OC)c1OC (stereo not given)
    -1.17	-2.0
> Cc1nc(/N=C(/N)NC(=O)c2ccccc2)nc2ccccc12
    nt	-0.4
> C=CCn1c(-c2nonc2NC(=O)c2ccccc2Cl)nc2ccccc21
    -0.639	2.2
> CCN(CC)C(=O)Oc1ccnc2cc(Cl)ccc12
    nt	-1.8
> O=S(=O)(c1ccc(NCCOc2ccccc2)nc1)N1CCCC1
    nt	-0.6
> CC1CCCC(C)N1C(=O)COC(=O)c1ccc(NS(=O)(=O)c2ccc3c(c2)OCCO3)cc1 (stereo not given)
    nt	1.6
> COC(=O)c1ccc(N2C(=O)c3ccc(N)cc3C2=O)cc1
    0.205	0.9
> O=c1c2ccccc2c(-c2ccccc2)nn1Cc1ccccc1
    nt	-0.2
> Cc1cc(C(=O)O)c(CN2CCCC2)o1
    0.995	-1.2
> COc1cccc(/C=N/NC(=O)CNc2ccccc2)c1
    0.277	0.2
> CC(C)NC(=O)C(N)Cc1c[nH]c2ccccc12 (stereo not given)
    -0.664	2.3
> O=C1c2ccccc2C(=O)N1CCN1c2cccc3cccc(c23)S1(=O)=O
    nt	1.4
> Cc1ccccc1OCC(O)Cn1c2ccccc2c2ccccc21 (stereo not given)
    nt	1.2
> O=C(CCn1nc(-c2ccc(Cl)cc2)ccc1=O)NCCN1CCN(c2cccc(Cl)c2)CC1
    0.964	-3.9
> O=C(O)CCn1cc(I)c(=O)[nH]c1=O
    nt	0.4
> NCCCSC1=NCCCN1
    -0.089	0.3
> C=CCn1c(-c2c(Nc3ccc(Cl)cc3)sc(C(=O)c3ccccc3)c2N)nnc1N1CCOCC1
    nt	0.3
> CC1CCCC(NC(=O)CN2CCCN(Cc3ccc(F)cc3Cl)C2=O)C1C (stereo not given)
    0.259	-0.9
> CCN(C(=O)c1cnn(-c2ccccc2)n1)c1nc2c(C)cccc2s1
    nt	-2.1
> O=C(O)CNC(=O)OCc1ccccc1
    0.493	0.5
> Cc1nn(C2CCS(=O)(=O)C2)c(Cl)c1/C=C/C(=O)OCCCn1c(=O)[nH]c2ccccc21 (stereo not given)
    nt	1.0
> O=C(NCc1csc(-c2cccs2)n1)c1ccno1
    nt	-2.1
> Cc1cc(C)nc(N(C#N)CC(=O)N2CCC(C(N)=O)CC2)n1
    -0.646	0.9
> CC1S/C(=N\C(=O)Nc2ccc(Cl)cc2)NC1=O (stereo not given)
    0.0945	-1.4
> O=C(CCN1CCN(c2nccc(C(F)(F)F)n2)CC1)N1CCCN(c2ccc(C(F)(F)F)cn2)CC1
    0.469	3.8
> Cn1c(CCc2nc3ccccc3[nH]2)nnc1SCC#N
    0.673	0.3
> CCn1ncc(CN2CCN(C(=S)Nc3ccc(Br)cc3Cl)CC2)c1C
    -0.716	-1.6
> COc1ccc(S(=O)(=O)N(CCC#N)C2CCCc3ccccc32)cc1OC (stereo not given)
    nt	1.5
> COc1ccc(C2OC(=O)C(C)(C)C(=O)C2C)cc1OC (stereo not given)
    -0.58	1.1
> O=C(Cn1c(=O)sc2ccccc21)OCc1ccccc1
    0.129	0.6
> CC(C)Cn1[nH]nnc1=S
    nt	-0.2
> O=[n+]1cc(-c2ccc(F)cc2)n([O-])c2c1CCCC2
    -0.295	1.8
> OC(CNCC1COc2ccccc2O1)COc1ccccc1F (stereo not given)
    nt	-0.4
> C=C(C)C1CC=C(CN2CCN(c3ccccc3)CC2)CC1 (stereo not given)
    0.734	-1.1
> COC(=O)CSc1nc2[nH]c(=O)cc(O)c2s1
    -0.808	-1.1
> COc1ccc(C)c(N2C(=O)CC(N3CCN(c4ccc(F)cc4)CC3)C2=O)c1 (stereo not given)
    -0.514	1.6
> CC(C(=O)NC(=O)NC1CCCCC1)N1CCN(S(=O)(=O)c2ccc3c(c2)OCCCO3)CC1 (stereo not given)
    nt	1.4
> CCCc1cc(=O)n2[nH]c(NC(=O)CCc3ccccc3)nc2n1
    -0.578	3.0
> Cn1cc(-c2nc3ccccc3[nH]2)c(-c2ccccc2)n1
    nt	0.6
> COc1ccccc1C(O)(C(=O)NNc1cccc(Br)n1)c1ccccc1OC
    0.707	0.1
> O=C(O)C1C2CCC(C2)C1C(=O)NCc1ccco1 (stereo not given)
    nt	0.9
> Cc1cc(NC(=O)C2CC3CCCN3C23C(=O)N(C)c2ccccc23)ccc1Br (stereo not given)
    0.259	0.7
> Cn1nc(C(F)(F)F)c(/C=N/O)c1Sc1ccccc1
    2.19	nt

Molecules shown so far containing a thiophene ring, fused or not:
Below each compound: LANA-nucl inh	Ab BasE inh
> O=S(=O)(Nc1cc(Sc2ncn[nH]2)c(O)c2ccccc12)c1cccs1
    0.907	-1.4
> O=C(Cn1c(=O)n(Cc2cccs2)c(=O)c2cccnc21)Nc1ccccc1
    -1.06	0.6
> C=CCn1c(-c2c(Nc3ccc(Cl)cc3)sc(C(=O)c3ccccc3)c2N)nnc1N1CCOCC1
    nt	0.3
> O=C(NCc1csc(-c2cccs2)n1)c1ccno1
    nt	-2.1

The list goes on:
Below each compound: LANA-nucl inh	Ab BasE inh
> COc1cc(NC(=O)CCS(=O)(=O)c2ccc3c(c2)NC(=O)C(C)S3)cc(OC)c1 (stereo not given)
    -0.903	0.9
> O=C(O)CNC(=O)c1ccc(CO)cc1
    nt	1.6
> O=C(c1ccc(Cl)cc1)C1CCN(C(=O)c2cnc3ccccc3n2)CC1
    -0.611	nt
> CSc1ccc(-c2cc(=O)c3ccccc3o2)cc1
    nt	0.9
> CCn1cc(CNC(=S)NC2CCCC2)cn1
    nt	0.3
> COc1ccc(C(=O)N/N=C2\CCc3ccccc32)cc1OC
    nt	-2.6
> COc1ccc(CN2CCCN(Cc3ccc(OC)cc3)C2c2cccc(C)n2)cc1
    -0.625	nt
> Cc1nc(SCc2c(F)c(F)c(F)c(F)c2F)c2ccccc2n1
    nt	0.0
> CCOC(=O)CSc1nsc(SCC(=O)OCC)c1C#N
    0.443	1.3
> O=S(=O)(Nc1nc2ccccc2nc1OCC(F)(F)F)c1cccs1
    nt	1.7
> O=c1[nH]c2c(=O)[nH]c(=S)[nH]c2nc1/C=C(\O)c1ccccc1
    nt	-10.7
> O=c1oc(C2CC2)nc2ccccc12
    nt	1.6
> Cc1ccc(NC(=O)COC(=O)CSC2CCS(=O)(=O)C2)cc1C (stereo not given)
    nt	-2.6
> O=C(O)c1cccc2[nH]c(=O)c(=O)[nH]c12
    -1.2	2.1
> CCCN1C2CCCC1CC(NC(=O)c1ccc(F)cc1)C2 (stereo not given)
    -1.53	-0.8
> N#C/C(=C\c1ccc(N2CCOCC2)cc1)C(=O)NCc1ccccc1
    nt	-2.9
> COC(=O)c1ccc(COC(=O)C(c2ccccc2)c2ccccc2)o1
    nt	2.4
> Cc1onc(-c2ccccc2)c1CN1CCS(=O)(=O)CC1
    -1.06	nt
> Cc1ccc2cc(C#N)c(=O)[nH]c2c1
    -0.83	4.3
> O=C(O)CC1CCCCO1 (stereo not given)
    -1.44	0.2
> CN=CC1=C(O)C(C(=O)OC)C(C)(C)CC1=O (stereo not given)
    0.223	-0.2
> Cc1ccc(Nc2cc(C)c3ccccc3n2)cc1
    -0.059	-1.2
> CC(C)(C)C(=O)Nc1ccccc1Cc1ccccc1
    nt	-0.4
> O=C(c1ccc(Cl)c(S(=O)(=O)NCc2cccnc2)c1)N1CCN(c2ncccn2)CC1
    nt	0.7
> COC(=O)c1cc(S(=O)(=O)NCC2CN(Cc3ccccc3)CN(Cc3ccccc3)C2)oc1C
    nt	0.8
> CC(=O)Nc1ccc(NS(C)(=O)=O)cc1
    nt	0.5
> Cc1noc(-c2ccccc2)c1NC(=O)Nc1ccc2sccc2c1
    0.775	-0.8
> S=c1sc2c(s1)SCCS2
    nt	0.5
> COc1ccccc1OCC(=O)N1CCN(c2ccccc2)CC1
    -0.115	1.4
> CCCOc1ccc(/C=N/NC(=O)c2cccc(S(=O)(=O)N3CCOCC3)c2)c(O)c1
    nt	0.9
> Cc1nn2c(=O)/c(=C/C=C/c3ccccc3)sc2nc1=O
    nt	0.8
> COc1cc(CNC(C)C)cc(OC)c1
    -0.19	-1.2
> CCc1cc(Br)ccc1OCC(=O)O
    -0.95	4.2
> CN(C)S(=O)(=O)c1ccc2oc3nnc(SCC(=O)C(C)(C)C)n3c2c1
    nt	-0.9
> CCc1ccc(N2CCN(CCNC(=O)Nc3ccccc3)CC2)cc1
    -0.359	4.9
> COC(=O)C(CC(C)C)NC(=O)Cn1cnc2ccccc2c1=O (stereo not given)
    nt	1.2
